Source: PubChem BioAssay (National Center for Advancing Translational Sciences (NCATS))
PINK1 expr mod: changes PINK1 expression | AID 624263 | 0.2% of 410,000 active | PINK1 immunofluorescence, high-content cytometry, 24 h | Potency, µM (top dose mostly 76.6 µM), inactives show top-dose activation (PINK1 increase), most hits filed as activators; active = well fitted activation curve with a large enough effect; inconclusive = small, poorly fitted or top-dose-only effect; inactive = flat fitted curve, though single readings scatter; cell line not stated here;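 note: potency is the fitted concentration of half-maximal effect; % of control where 0% means no effect; nearly all actives have a fitted effect of over 65% in size; a mitochondrial uncoupler was the plate control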
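PINK1 protein, normally rapidly degraded, was detected by immunofluorescence after 24 hour compound treatment of a stable cell line. Titration data (5 concentrations) came from laser-scanning cytometry, with CCCP-treated wells as controls.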
D2 agonist: agonists of human D2 dopamine receptor (beta-arrestin). 0.084% of 360,000 active. DiscoveRx PathHunter D2 beta-arrestin, luminescence, 90 min; 100% = 57 uM dopamine signal. activation, % (concentration not given with the values). AID 624465; in the data active = activation above about 40%; inconclusive = about 15% to 40%; inactive = below about 15%; note: compound concentration not given in the record; the text of the record calls up to 30% inactive
Target sequence (P14416 whole entry, looked up): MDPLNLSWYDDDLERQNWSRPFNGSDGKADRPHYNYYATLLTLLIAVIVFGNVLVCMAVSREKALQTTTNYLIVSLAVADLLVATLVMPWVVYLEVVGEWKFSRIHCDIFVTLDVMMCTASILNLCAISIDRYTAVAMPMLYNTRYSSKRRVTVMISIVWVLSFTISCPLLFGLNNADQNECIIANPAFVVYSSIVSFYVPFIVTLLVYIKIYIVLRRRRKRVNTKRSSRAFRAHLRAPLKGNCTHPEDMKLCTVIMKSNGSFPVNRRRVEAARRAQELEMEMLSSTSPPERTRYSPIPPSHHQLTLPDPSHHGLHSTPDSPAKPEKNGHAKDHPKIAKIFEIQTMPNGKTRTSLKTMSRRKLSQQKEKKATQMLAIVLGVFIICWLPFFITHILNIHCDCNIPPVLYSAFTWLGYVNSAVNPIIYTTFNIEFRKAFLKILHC
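DiscoveRx PathHunter D2 beta-arrestin cells (2,100/well) attached overnight, then compound-stimulated 90 min at 37 C in HBSS/10 mM HEPES/0.1% Tween-20 buffer; beta-galactosidase complementation read by luminescence after 1 h at ambient temperature. Dopamine 57 uM final (EC100) as control.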
TRPML1 agonist: human mucolipin-1 channel agonism | Q9GZU1 | TRPML1-expressing cells, Ca2+ dye fluorescence, FDSS; host cell line not named in the record; reference of the full effect not given here | activation, % (test concentration not listed) | 0.12% of 410,000 active | AID 624414; in the data active = activation above about 50%; inconclusive = about 30% to 50%; inactive = below about 30%; note: 0% is about no effect; the text of the record puts the active cut at 80%
Target sequence (Q9GZU1 whole entry, looked up): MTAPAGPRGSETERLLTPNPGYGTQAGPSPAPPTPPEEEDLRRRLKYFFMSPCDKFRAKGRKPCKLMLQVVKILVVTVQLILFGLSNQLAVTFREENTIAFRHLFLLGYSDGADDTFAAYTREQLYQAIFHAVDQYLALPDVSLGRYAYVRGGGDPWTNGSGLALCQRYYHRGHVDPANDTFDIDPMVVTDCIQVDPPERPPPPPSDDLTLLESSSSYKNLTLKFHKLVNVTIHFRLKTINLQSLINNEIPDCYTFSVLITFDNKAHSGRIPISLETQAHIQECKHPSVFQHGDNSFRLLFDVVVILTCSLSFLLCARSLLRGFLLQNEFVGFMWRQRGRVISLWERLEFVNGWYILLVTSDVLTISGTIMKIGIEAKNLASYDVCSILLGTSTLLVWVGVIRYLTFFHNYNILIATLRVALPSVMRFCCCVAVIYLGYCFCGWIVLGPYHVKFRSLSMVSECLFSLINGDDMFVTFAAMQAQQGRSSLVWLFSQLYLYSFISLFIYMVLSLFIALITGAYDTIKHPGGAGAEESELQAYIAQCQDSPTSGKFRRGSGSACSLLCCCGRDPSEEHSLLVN
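Cells: TRPML1-DL, 1X Tet inducer, ~16 h at 37 degrees C/5% CO2. Dye: ABD Ca8 no-wash + quencher, 45-90 min RT. Read: 10 s baseline, compound add, 110 s agonist phase; 54-4 EC80 (4uM final), 110 s antagonist phase.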
CtBP-E1A blk: blocks the CtBP interaction with E1A | activity change, % (test concentration not listed) | AlphaScreen GST-E1A/His-CtBP binding, 1536-well; stronger effect = lower value; control for the full effect not named in the record | 0.49% of 340,000 active; in the data active means activity change below about -65%; inconclusive means about -30% to -65%; inactive means above about -30%; note: % is set by controls: 0 for no effect and ±100 for the full control effect; compound concentration not given in the record
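In 5 uL wells, 23 nL compound meets equimolar GST-E1A and His-CtBP (5X stock 125 nM each) for 2 h, 37 °C. Beads (5X, 50 ug/mL) then 1 h, 37 °C, dark.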
TRPML1 inh: inhibitors of human TRPML1 channel; Q9GZU1; TRPML1-inducible cells, Ca2+ dye fluorescence, FDSS; stronger effect = lower value; inhibition of EC80 agonist-evoked calcium signal; activity change, negative = inhibition, % (no concentration beside the values); 0.02% of 390,000 active; AID 624415; in the data active means activity change below about -50%; inconclusive means about -30% to -50%; inactive means above about -30%;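 note: stimulus is agonist 54-4 at its EC80 concentration; % is set by controls: 0 for no effect and ±100 for the full control effect; compound concentration not given in the record; the text of the record puts the active cut at -80%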
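TRPML1-DL cells, Tet-induced overnight (~16 h, 37 °C) at 1,500 cells/well, were loaded with Ca8 no-wash dye plus quencher for 45-90 min at room temperature. Compounds were pinned during FDSS kinetic reading; agonist 54-4 at EC80 (4 uM final) then added.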
Six1-Eya2 inh: inhibitors of human Six1/Eya2 interaction; AlphaScreen GST-Six1/His-Eya2 binding, biochemical; stronger effect = lower value; control for the full effect not named in the record; AID 651725; activity change, % (test concentration not listed); Q15475+O00167; 0.56% of 360,000 active; in the data active = activity change below about -65%; inconclusive = about -30% to -65%; inactive = above about -30%; note: % is set by controls: 0 for no effect and ±100 for the full control effect; compound concentration not given in the record
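AlphaScreen luminescence read after one hour at 37 °C in darkness. Pin-transferred compounds met GST-Six1 and His-Eya2 protein (5X stock 250 nM/500 nM) plus glutathione donor and Ni-chelate acceptor beads (5X, 50 ug/mL).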
The depositor's hits bear a star; & = joins results of further samples; [ ] = dose if it differs, or a comment.

Results for CCOC(=O)NCc1cc(-c2nn(C)c(=O)c3ccccc23)ccc1C ?
PINK1 expr mod: 13.3%; D2 agonist: -4.8; TRPML1 agonist: 0.2; CtBP-E1A blk: 4.8; TRPML1 inh: 5.6; Six1-Eya2 inh: -3.3

How did Cc1ccn2c(Nc3ccccc3)c(-c3c[nH]c4ccccc34)nc2c1 do in these assays?
PINK1 expr mod: 2.1%; TRPML1 agonist: 2.4; TRPML1 inh: 15.2

What do the screens show for `Cc1ccc2nc(CCc3nc4ccc(C)cc4o3)oc2c1`?
PINK1 expr mod: -3.1%; D2 agonist: 1.0; TRPML1 agonist: 1.7; CtBP-E1A blk: 0.2; TRPML1 inh: -1.2; Six1-Eya2 inh: 0.5

Results for Clc1cccc(CNCCCSc2nnnn2-c2ccccc2)c1 ?
PINK1 expr mod: 1.0%; TRPML1 agonist: -0.2; TRPML1 inh: 4.0

Results for O=C(CCNS(=O)(=O)c1ccc(Cl)cc1)OCC(=O)c1ccc[nH]1 ?
PINK1 expr mod: 0.2%; D2 agonist: -1.7; TRPML1 agonist: 0.2; CtBP-E1A blk: -1.2; TRPML1 inh: 3.1; Six1-Eya2 inh: -2.3

Results for Cc1cnc(C(=O)N2CCN(S(=O)(=O)c3cc(C(F)(F)F)cc(C(F)(F)F)c3)CC2)cn1 ?
PINK1 expr mod: 1.4%; D2 agonist: 2.1; TRPML1 agonist: -0.7; TRPML1 inh: -5.5; Six1-Eya2 inh: 1.8

How did CC(=O)c1ccc(N2CCN(S(=O)(=O)c3ccc4c(c3)CC(=O)N4C)CC2)cc1 do in these assays?
PINK1 expr mod: -0.6%; D2 agonist: -4.3; TRPML1 agonist: 0.5; TRPML1 inh: -3.2; Six1-Eya2 inh: -1.9

Results for C/C(=N\Nc1cc(N2CCOCC2)nc(C)n1)c1cccc([N+](=O)[O-])c1 ?
PINK1 expr mod: 4.3%; D2 agonist: -2.1; TRPML1 agonist: 0.3; CtBP-E1A blk: 2.6; TRPML1 inh: 15.0; Six1-Eya2 inh: -2.6

How did O=C(NCCF)[C@H]1C[C@@H]1[C@H](NP(=O)(c1ccccc1)c1ccccc1)c1ccccc1 do in these assays?
PINK1 expr mod: -0.8%; D2 agonist: -3.6; TRPML1 agonist: 0.2; CtBP-E1A blk: 4.2; TRPML1 inh: -12.4; Six1-Eya2 inh: 4.3

Results for COc1ccc(NC(=O)c2ccc3nc(C)sc3c2)cc1 ?
PINK1 expr mod: 0.0%; D2 agonist: -2.2; TRPML1 agonist: -0.5; CtBP-E1A blk: 0.0; TRPML1 inh: -24.1; Six1-Eya2 inh: -7.3

How did O=C(NCc1cc(C(F)(F)F)cc(C(F)(F)F)c1)C12CN(Cc3ccccc3)CC1C(c1cccc([N+](=O)[O-])c1)=NO2 (configuration not stated) do in these assays?
PINK1 expr mod: 1.9%; D2 agonist: -0.7; TRPML1 agonist: -0.7; CtBP-E1A blk: 3.0; TRPML1 inh: -4.4; Six1-Eya2 inh: -7.2

What do the screens show for `CCN1C(=O)/C(=C\N2CCN(C)CC2)SC1=S`?
PINK1 expr mod: -1.4%; D2 agonist: 1.2; TRPML1 agonist: 0.3; CtBP-E1A blk: 6.4; TRPML1 inh: 5.5; Six1-Eya2 inh: 10.9

What do the screens show for `COc1cccc2cc(C(=O)Nc3ccc(S(=O)(=O)NCC4CCCO4)cc3)c(=O)oc12` (configuration not stated)?
PINK1 expr mod: 0.6%; D2 agonist: -0.5; TRPML1 agonist: -0.5; CtBP-E1A blk: -5.1; TRPML1 inh: 2.6; Six1-Eya2 inh: -7.1

What do the screens show for `Cc1cc(N2CCCC2=O)ccc1S(=O)(=O)Nc1c(C)nn(C)c1C`?
PINK1 expr mod: 3.6%; D2 agonist: -1.8; TRPML1 agonist: -0.5; TRPML1 inh: 6.2; Six1-Eya2 inh: 3.1

Results for Cc1cc(F)ccc1NC(=O)C1CSC2(C)CCC(=O)N12 (configuration not stated) ?
PINK1 expr mod: -1.6%; D2 agonist: -4.1; TRPML1 agonist: 0.3; CtBP-E1A blk: -20.7; TRPML1 inh: 2.1; Six1-Eya2 inh: 5.9

How did OCCN=C1CCCc2c1[nH]c1ccc(Cl)cc21 do in these assays?
PINK1 expr mod: 3.8%; D2 agonist: 5.0; TRPML1 agonist: 1.1; CtBP-E1A blk: -5.3; TRPML1 inh: -9.6; Six1-Eya2 inh: -0.1

How did CC(C)(C)NNC(=S)Nc1cccc(C(F)(F)F)c1 do in these assays?
PINK1 expr mod: 1.2%; D2 agonist: 1.1; TRPML1 agonist: 1.3; CtBP-E1A blk: 4.3; TRPML1 inh: 2.4; Six1-Eya2 inh: 0.1

What do the screens show for `COc1ccc(C(CNC(=O)c2oc3ccc(Cl)cc3c2C)N2CCCCC2)cc1` (configuration not stated)?
PINK1 expr mod: inconclusive; D2 agonist: -3.9; TRPML1 agonist: -1.0&0.2; TRPML1 inh: 2.4&-23.1; Six1-Eya2 inh: 4.5

How did CCOC(=O)c1c(-c2cccc(C)c2)csc1NC(=O)C1CC=CCC1C(=O)O (configuration not stated) do in these assays?
PINK1 expr mod: -1.2%; D2 agonist: -2.2; TRPML1 agonist: 0.3; CtBP-E1A blk: 5.8; TRPML1 inh: 33.4; Six1-Eya2 inh: -6.3

What do the screens show for `Cc1cc(C)nc(SCC(=O)Nc2ncc(Cc3ccc(Cl)c(Cl)c3)s2)n1`?
PINK1 expr mod: inconclusive; D2 agonist: -0.8; TRPML1 agonist: 2.1; CtBP-E1A blk: 4.6; TRPML1 inh: 15.0; Six1-Eya2 inh: 3.8

What do the screens show for `CC(=O)Nc1cc(NC(C)=O)cc(C(=O)OC(C)C(=O)Nc2ccc(S(=O)(=O)N3CCCC3)cc2)c1` (configuration not stated)?
PINK1 expr mod: -1.0%; D2 agonist: -0.9; TRPML1 agonist: -0.2; CtBP-E1A blk: -5.0; TRPML1 inh: -19.5; Six1-Eya2 inh: -11.4

What do the screens show for `CC(=O)Oc1ccc2c(c1)c(C(C)=O)c(C)n2C`?
PINK1 expr mod: 4.2%[38.3 µM]; D2 agonist: -1.2; TRPML1 agonist: 2.3; CtBP-E1A blk: -2.5; TRPML1 inh: 17.3; Six1-Eya2 inh: 2.7

Results for CCN1CCN(CCC(=O)Nc2cc(C)ccc2C)CC1 ?
PINK1 expr mod: 1.4%; D2 agonist: 1.6; TRPML1 agonist: -0.8; CtBP-E1A blk: 5.8; TRPML1 inh: -11.4; Six1-Eya2 inh: 0.6

What do the screens show for `c1ccc(-c2nc(NCc3cccnc3)c3ccccc3n2)cc1`?
PINK1 expr mod: 2.4%[38.3 µM]; D2 agonist: -0.1; TRPML1 agonist: 0.6; CtBP-E1A blk: -18.2; TRPML1 inh: 0.8; Six1-Eya2 inh: -14.7

What do the screens show for `Cc1ccc(C(=O)N/C(=C\c2ccc(-c3cc(Cl)ccc3Cl)o2)C(=O)NCc2cccnc2)cc1`?
PINK1 expr mod: -3.0%; D2 agonist: -6.3; TRPML1 agonist: 0.6; CtBP-E1A blk: -8.1; TRPML1 inh: 4.6; Six1-Eya2 inh: -9.0

Results for Cc1c(C(=O)NC2CCOC2)oc2c(F)cccc12 (configuration not stated) ?
PINK1 expr mod: -2.1%; D2 agonist: -0.9; TRPML1 agonist: 3.6; TRPML1 inh: 1.7; Six1-Eya2 inh: 3.1

What do the screens show for `NC(=O)c1nsc(C(=O)N(c2ccccc2)C(C(=O)NC2CCCC2)c2ccc3ncccc3c2)c1N` (configuration not stated)?
PINK1 expr mod: 1.7%; D2 agonist: inconclusive; TRPML1 agonist: 1.2; CtBP-E1A blk: -9.3; TRPML1 inh: 11.9; Six1-Eya2 inh: 0.0

How did COc1cccc(CNS(=O)(=O)c2c(C)nc3scc(C)n3c2=O)c1 do in these assays?
PINK1 expr mod: -0.9%&0.5%; D2 agonist: 3.1; TRPML1 agonist: 0.3&-0.4; CtBP-E1A blk: 3.2; TRPML1 inh: 20.6&-11.6; Six1-Eya2 inh: 2.4

Results for Cc1ccc(-c2nc(C3CCCN(S(=O)(=O)c4ccc(C(C)(C)C)cc4)C3)no2)cc1 (configuration not stated) ?
PINK1 expr mod: 6.1%; D2 agonist: -3.8; TRPML1 agonist: -0.9; CtBP-E1A blk: 6.6; TRPML1 inh: 3.7; Six1-Eya2 inh: 2.4

What do the screens show for `COc1ccccc1C(=O)NCCC(=O)N(Cc1ccco1)Cc1cccs1`?
PINK1 expr mod: 0.4%; D2 agonist: 0.4; TRPML1 agonist: -0.1; CtBP-E1A blk: 4.2; TRPML1 inh: 1.7; Six1-Eya2 inh: -12.8

What do the screens show for `O=c1[nH]c2ccc(Cl)cc2c(O)c1-c1ccccc1`?
PINK1 expr mod: 0.6%; D2 agonist: -2.8; TRPML1 agonist: -1.1; CtBP-E1A blk: 5.1; TRPML1 inh: -11.9; Six1-Eya2 inh: 3.4

How did O=C(CCCN1C(=O)c2cccnc2Oc2ccc(Cl)cc21)N1CCCCC1 do in these assays?
PINK1 expr mod: 0.5%; D2 agonist: 4.0; TRPML1 agonist: 1.0; CtBP-E1A blk: 3.0; TRPML1 inh: -6.0; Six1-Eya2 inh: -1.3

Results for Cc1cccc(NC(=O)C2SC(=Nc3c(C)cccc3C)C(C(=O)N3CCOCC3)=C2N)c1 (configuration not stated) ?
PINK1 expr mod: inconclusive; D2 agonist: -6.0; TRPML1 agonist: -0.4; CtBP-E1A blk: -0.6; TRPML1 inh: 2.5; Six1-Eya2 inh: -16.9

What do the screens show for `CCc1ccc(-c2csc(NC(=O)C3=NN(c4ccccc4)C(=O)CC3)n2)cc1`?
PINK1 expr mod: 0.9%; D2 agonist: 2.7; TRPML1 agonist: 0.0; TRPML1 inh: 22.1; Six1-Eya2 inh: -6.9

Results for COc1cccc(N2CC(C(=O)Nc3nnc(SCC(=O)c4ccccc4)s3)CC2=O)c1 (configuration not stated) ?
PINK1 expr mod: 0.5%; D2 agonist: -0.6; TRPML1 agonist: 0.0; CtBP-E1A blk: -12.3; TRPML1 inh: -20.5; Six1-Eya2 inh: -9.3

What do the screens show for `CCNC(=O)COc1ccc(/C=C2\COc3ccccc3C2=O)cc1OC`?
PINK1 expr mod: -4.4%; D2 agonist: 2.3; TRPML1 agonist: 2.9; CtBP-E1A blk: -7.8; TRPML1 inh: -1.6; Six1-Eya2 inh: 4.9

What do the screens show for `O=C(N/N=C/c1ccccc1[N+](=O)[O-])c1ccc(CN2CCOCC2)cc1`?
PINK1 expr mod: 1.0%; D2 agonist: 3.4; TRPML1 agonist: -0.7; CtBP-E1A blk: 0.7; TRPML1 inh: -0.5; Six1-Eya2 inh: -1.0

Random draw from the library; overall some 1% were active at least once.
